Screening data: PubChem, National Center for Advancing Translational Sciences (NCATS)
GoLoco inh red = blocks human Gai1 binding to RGS12 GoLoco peptide, red readout. P63096. Gai1:RGS12 GoLoco peptide FP, rhodamine, 10 min. Potency, µM (series often up to 61.6 µM), without a hit: top-dose activity, negative = inhibition, hits mostly inhibitors. hit rate 0.44% among 230,000. AID 880; active means well fitted inhibition curve with a large enough effect, not every such curve was filed as active; inactive means no such curve, though single readings can be large or run the other way; further: on the % scale 0 is the no-effect control and ±100 the full control effect; nearly all actives have a fitted effect of over 30% in size; many of its hits are not listed in these tables
Target sequence (P63096 whole entry, looked up): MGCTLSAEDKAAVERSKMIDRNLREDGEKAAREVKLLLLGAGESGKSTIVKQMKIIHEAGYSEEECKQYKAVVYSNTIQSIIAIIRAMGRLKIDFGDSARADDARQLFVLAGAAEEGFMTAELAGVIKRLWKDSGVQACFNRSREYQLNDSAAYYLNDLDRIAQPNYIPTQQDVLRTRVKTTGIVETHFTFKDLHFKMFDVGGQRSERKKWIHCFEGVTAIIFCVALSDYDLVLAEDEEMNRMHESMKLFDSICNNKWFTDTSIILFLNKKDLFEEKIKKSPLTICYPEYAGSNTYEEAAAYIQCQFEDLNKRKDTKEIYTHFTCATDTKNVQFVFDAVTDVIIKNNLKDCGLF
GAA glycogen = inhibitors or activators of human alpha-glucosidase glycogen cleavage; AID 2100; recombinant GAA, glycogen substrate, Amplex Red glucose oxidase fluorescence; P10253; Potency, µM (doses to about 76.4 µM), for the others: at the highest dose activity change, negative = inhibition, usual class: inhibitors; hit rate 0.38% among 300,000;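 further: 0% = full enzyme reaction and -100% = no-enzyme basal signal; the screen sought inhibitors and activators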
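Recombinant human enzyme (4 nM); glycogen substrate; 37 C, 40 min, pH 5.0. Readout: coupled glucose oxidase/Amplex Red fluorescence.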
KDM4E inh = inhibitors of human JMJD2E histone demethylase | B2RXH2 | JMJD2E catalytic domain, FDH-coupled NADH fluorescence (FDH is formaldehyde dehydrogenase) | Potency, µM (top dose mostly 57.1 µM), for inactives: at the highest dose activity change, negative = inhibition, usual class: inhibitors | hit rate 1.6% among 230,000 | AID 2147; active means well fitted inhibition curve with a large enough effect, not every such curve was filed as active; inconclusive means small, poorly fitted or top-dose-only effect, or another doubt; inactive means no such curve, though single readings can be large or run the other way;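 further: 0% = wells with enzyme and -100% = buffer wells without enzyme; nearly all actives have a fitted effect of over 50% in size; many of its hits are not listed in these tables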
Target sequence (B2RXH2 1-337 limits assumed): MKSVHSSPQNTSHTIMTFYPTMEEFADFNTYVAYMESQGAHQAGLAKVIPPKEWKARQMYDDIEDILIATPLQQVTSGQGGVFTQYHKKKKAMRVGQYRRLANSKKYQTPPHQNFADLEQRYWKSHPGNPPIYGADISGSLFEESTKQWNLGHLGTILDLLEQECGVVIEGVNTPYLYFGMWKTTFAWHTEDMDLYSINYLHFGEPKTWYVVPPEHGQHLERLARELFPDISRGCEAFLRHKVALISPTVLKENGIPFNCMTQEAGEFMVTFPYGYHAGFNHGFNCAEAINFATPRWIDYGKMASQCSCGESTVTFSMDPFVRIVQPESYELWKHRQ
GAA inh = alpha-glucosidase (human) inhibition. AID 1466. hit rate 0.005% among 200,000. Potency, µM (highest dose often 76.9 µM), without a hit: at the top dose activity change, negative = inhibition, actives largely listed as inhibitors. purified human GAA, 4-MU-alpha-glucoside fluorescence;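 further: plate controls were uninhibited enzyme wells for no effect and no-enzyme background for full effect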
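Endpoint fluorogenic read: 20 min room-temperature reaction of 4 nM human alpha-glucosidase with 400 uM 4-methylumbelliferyl-alpha-D-pyranoside, pH 5.0, quenched with 1M NaOH/1M glycine pH 10. AC50 from Hill modeling.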
SMN2 splice enh = enhancers of SMN2 splice variant expression. HEK293 SMN2-luciferase splicing reporter, luminescence, 30-36 h. hit rate 2.8% among 210,000. Potency, µM (highest dose often 46.1 µM), inactives show top-dose activity change, positive = activation, actives largely listed as activators; further: % of control where 0% means no effect; nearly all actives have a fitted effect of over 55% in size
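HEK293 cells carry an SMN2 […]–luciferase reporter in which exon 7 inclusion puts luciferase in frame. Cells were plated 10-12 h before compound addition, then incubated 30-36 h at 37C. ONE-Glo luminescence was read; sodium butyrate at 4.5 mM final served as control.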
aGlu spleen mod = inhibitors or activators of human alpha-glucosidase in spleen homogenate; P10253; AID 2112; hit rate 0.006% among 240,000; Potency, µM (top dose mostly 79.9 µM), for the others: at the highest dose activity change, negative = inhibition, usual class: inhibitors; human spleen homogenate, 4-MU-alpha-glucoside fluorescence;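 further: 0% = enzyme with vehicle and -100% = no enzyme basal signal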
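Compounds were titrated against alpha-glucosidase in spleen homogenate at pH 5.0, with 1 mM 4-methylumbelliferyl substrate for 40 min at 37 C. Reactions were quenched with pH 10 NaOH/glycine and fluorescence measured.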
aGal spleen mod = alpha-galactosidase A (human) modulation. P06280. human spleen homogenate, 4MU-alpha-Gal fluorescence, 40 min. Potency, µM (doses to about 80 µM), without a hit: at the top dose activity change, negative = inhibition, actives largely listed as inhibitors. hit rate 0.008% among 240,000. AID 2107;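 further: 0% = enzyme with vehicle and -100% = no enzyme basal signal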
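qHTS titration in buffer at pH 5.0. Alpha-galactosidase activity in spleen homogenate was measured via 4-methylumbelliferone release from 1 mM fluorogenic substrate after 40 min at 37C and a pH 10 stop. AC50 came from Hill fits of control-normalized data.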
Active calls of the source: *; & = joins results of further samples; [ ] = remark or other dose. Unless noted, the call rests on the fitted dose curve; in most records, active means well fitted curve in the direction sought with a large enough effect; inconclusive means small, poorly fitted or top-dose-only effect, or another doubt; inactive means no such curve, though single readings can be large; an effect the other way counts as inactive or inconclusive. Potency means the concentration at half of the fitted maximal effect.

Results for FC(F)(F)/C(=N\P(=S)(N1CCOCC1)N1CCOCC1)N1CCOCC1 ?
GoLoco inh red: 2.9%; GAA glycogen: 1.6%; KDM4E inh: 4.0%; GAA inh: 11.5%; SMN2 splice enh: 25.4%; aGlu spleen mod: 1.0%; aGal spleen mod: -4.5%

What do the screens show for `Cc1cccnc1-n1c(CN2C(=O)c3ccccc3C2=O)nc2ccccc2c1=O`?
GoLoco inh red: 8.2%; GAA glycogen: 2.0%; KDM4E inh: -0.5%; GAA inh: -2.7%; SMN2 splice enh: -1.9%; aGlu spleen mod: -3.3%; aGal spleen mod: -3.4%

What do the screens show for `O=C1NC(=O)N(c2ccccc2)C(=O)/C1=C/c1ccoc1`?
GoLoco inh red: 32.8%[activator]; GAA glycogen: -12.9%; KDM4E inh: -5.7%; GAA inh: 6.5%; SMN2 splice enh: 19.1%; aGlu spleen mod: 6.6%; aGal spleen mod: 0.1%

Results for Cc1nn(Cc2ccc(Cl)cc2Cl)c(Cl)c1C(=O)O ?
GoLoco inh red: 8.0%; GAA glycogen: -2.5%; KDM4E inh: -4.2%; GAA inh: 1.5%; SMN2 splice enh: -5.4%; aGlu spleen mod: 1.6%; aGal spleen mod: -4.7%

How did CCOc1ccccc1Oc1coc2cc(OC(=O)c3ccco3)ccc2c1=O do in these assays?
GoLoco inh red: 4.4%; GAA glycogen: -4.7%; KDM4E inh: 12.8%; GAA inh: -4.5%; SMN2 splice enh: inconclusive; aGlu spleen mod: -7.5%; aGal spleen mod: -3.9%

Results for O=[N+]([O-])c1cccc(CCl)c1 ?
GoLoco inh red: -0.2%; SMN2 splice enh: 1.2%; aGlu spleen mod: 0.2%; aGal spleen mod: -5.5%

What do the screens show for `COc1nc2ccccc2c(=O)n1-c1ccc(C)cc1`?
GoLoco inh red: 7.4%; GAA glycogen: 2.9%; KDM4E inh: 2.1%; GAA inh: -5.3%; SMN2 splice enh: -24.3%; aGlu spleen mod: 1.6%; aGal spleen mod: 2.1%

What do the screens show for `O=C(O)C(Cc1cnc[nH]1)NS(=O)(=O)c1ccc(Cl)cc1` (stereo unspecified)?
GoLoco inh red: -11.0%; GAA glycogen: -0.4%; KDM4E inh: -2.2%; GAA inh: 0.7%; SMN2 splice enh: -2.1%; aGlu spleen mod: -9.2%; aGal spleen mod: 4.4%

What do the screens show for `Cc1cccc([N+](=O)[O-])c1`?
GoLoco inh red: 25.1µM*; SMN2 splice enh: 2.7%; aGlu spleen mod: 9.2%; aGal spleen mod: -5.2%

How did CNc1cc(Cl)c2nonc2c1[N+](=O)[O-] do in these assays?
GoLoco inh red: -26.5%; GAA glycogen: -4.4%; KDM4E inh: -3.7%; GAA inh: -7.7%; SMN2 splice enh: -86.0%[inhibitor]; aGlu spleen mod: -3.7%; aGal spleen mod: -6.4%

How did COc1ccc(CCNCc2ccc(F)cc2)cc1OC do in these assays?
GoLoco inh red: 1.3%; GAA glycogen: 4.7%; KDM4E inh: 1.4%; GAA inh: 5.1%; SMN2 splice enh: 1.2%; aGlu spleen mod: 0.2%; aGal spleen mod: 6.1%

Results for C=C[C@H]1CN2CCC1C[C@@H]2C(O)c1ccnc2ccccc12 (stereo partly specified) ?
GoLoco inh red: 4.7%; KDM4E inh: 2.5%; aGlu spleen mod: 10.1%; aGal spleen mod: 5.6%

How did COc1cc(OC)cc(-n2nc(C(=O)N3CCC4(CC3)OCCO4)c3ccccc3c2=O)c1 do in these assays?
GoLoco inh red: 2.6%; GAA glycogen: 2.0%; KDM4E inh: inconclusive; GAA inh: -2.5%; SMN2 splice enh: -9.3%; aGlu spleen mod: -27.1%; aGal spleen mod: 11.5%

What do the screens show for `O=c1c2cc([N+](=O)[O-])ccc2nc(CN2CCOCC2)n1-c1ccccc1F`?
GoLoco inh red: -17.5%; GAA glycogen: 16.0%; KDM4E inh: 0.0%; GAA inh: 8.4%; SMN2 splice enh: 36.9%; aGlu spleen mod: -3.9%; aGal spleen mod: -5.4%

Results for COc1ccccc1Cn1c(SCC#N)nc2cc(C(=O)N3CCC4(CC3)OCCO4)ccc2c1=O ?
GoLoco inh red: -14.3%; GAA glycogen: -13.0%; KDM4E inh: -0.5%; GAA inh: inconclusive; SMN2 splice enh: -13.1%; aGlu spleen mod: 0.0%; aGal spleen mod: 1.3%

What do the screens show for `CCOCCCN=Cc1c(O)n(Cc2ccccc2)c(=O)[nH]c1=O`?
GoLoco inh red: -1.3%; GAA glycogen: 1.3%; KDM4E inh: 10.4%; GAA inh: -2.8%; SMN2 splice enh: 0.2%; aGlu spleen mod: 2.4%; aGal spleen mod: -25.5%

How did Cc1c(C=O)c2ccccc2n1Cc1ccc([N+](=O)[O-])cc1 do in these assays?
GoLoco inh red: 11.8%; GAA glycogen: 3.2%; KDM4E inh: -3.1%; GAA inh: -2.4%; SMN2 splice enh: -6.3%; aGlu spleen mod: -5.1%; aGal spleen mod: -4.4%

Results for O=[N+]([O-])c1ccc(NCCO)c2ncccc12 ?
GoLoco inh red: 7.3%; GAA glycogen: 10.7%; KDM4E inh: -2.8%; GAA inh: -7.4%; SMN2 splice enh: -3.5%; aGlu spleen mod: -20.6%; aGal spleen mod: -1.9%

What do the screens show for `Cc1cc(C=O)c(C)n1C1CC1`?
GoLoco inh red: 6.6%; GAA glycogen: -5.8%; KDM4E inh: 29.3%; GAA inh: -5.9%; SMN2 splice enh: 16.9%; aGlu spleen mod: 7.3%; aGal spleen mod: 9.0%

Results for Cc1ccc(C(=O)O)cc1N=Nc1c(O)[nH]c(=O)[nH]c1=O ?
GoLoco inh red: 7.0%; GAA glycogen: -1.3%; KDM4E inh: 1.6%; GAA inh: -7.3%; SMN2 splice enh: -5.9%; aGlu spleen mod: -9.3%; aGal spleen mod: 2.3%

5 compounds out of the list, ordered by SMILES length, smallest number first:
What do the screens show for `Cc1cc(C=O)c(C)n1C1CC1`?
GoLoco inh red: 6.6%; GAA glycogen: -5.8%; KDM4E inh: 29.3%; GAA inh: -5.9%; SMN2 splice enh: 16.9%; aGlu spleen mod: 7.3%; aGal spleen mod: 9.0%

How did CNc1cc(Cl)c2nonc2c1[N+](=O)[O-] do in these assays?
GoLoco inh red: -26.5%; GAA glycogen: -4.4%; KDM4E inh: -3.7%; GAA inh: -7.7%; SMN2 splice enh: -86.0%[inhibitor]; aGlu spleen mod: -3.7%; aGal spleen mod: -6.4%

What do the screens show for `COc1nc2ccccc2c(=O)n1-c1ccc(C)cc1`?
GoLoco inh red: 7.4%; GAA glycogen: 2.9%; KDM4E inh: 2.1%; GAA inh: -5.3%; SMN2 splice enh: -24.3%; aGlu spleen mod: 1.6%; aGal spleen mod: 2.1%

What do the screens show for `O=C1NC(=O)N(c2ccccc2)C(=O)/C1=C/c1ccoc1`?
GoLoco inh red: 32.8%[activator]; GAA glycogen: -12.9%; KDM4E inh: -5.7%; GAA inh: 6.5%; SMN2 splice enh: 19.1%; aGlu spleen mod: 6.6%; aGal spleen mod: 0.1%

How did Cc1c(C=O)c2ccccc2n1Cc1ccc([N+](=O)[O-])cc1 do in these assays?
GoLoco inh red: 11.8%; GAA glycogen: 3.2%; KDM4E inh: -3.1%; GAA inh: -2.4%; SMN2 splice enh: -6.3%; aGlu spleen mod: -5.1%; aGal spleen mod: -4.4%

Continuation:
Results for CC1=C2CC3C(CC=C4C[C@@H](O)CC[C@@]43C)[C@@H]2CC[C@]12O[C@@H]1C[C@H](C)CN[C@H]1[C@H]2C (stereo partly specified) ?
GoLoco inh red: 2.1%; SMN2 splice enh: 1.4%; aGlu spleen mod: -3.0%&3.5%; aGal spleen mod: -6.4%&-5.5%

What do the screens show for `Cn1ccnc1P(=S)(c1nccn1C)c1nccn1C`?
GoLoco inh red: -0.5%; GAA glycogen: -4.8%; KDM4E inh: -7.1%; GAA inh: 2.8%; SMN2 splice enh: -10.8%; aGlu spleen mod: 1.0%; aGal spleen mod: 5.9%

Results for CCCC(C)C1(CC)C(=O)NC(=Nc2ccccc2OC)NC1=O (stereo unspecified) ?
GoLoco inh red: 13.4%; GAA glycogen: 1.8%; KDM4E inh: 4.7%; GAA inh: -1.5%; SMN2 splice enh: 0.9%; aGlu spleen mod: -4.0%; aGal spleen mod: 1.1%

What do the screens show for `COc1ccc(OC)c([C@@H](O)[C@H](C)NC(C)(C)C)c1`?
GoLoco inh red: -4.6%; GAA glycogen: 0.9%; KDM4E inh: 7.1%; GAA inh: -0.4%[15.4 µM]; SMN2 splice enh: -17.3%; aGlu spleen mod: -1.6%; aGal spleen mod: -1.0%

What do the screens show for `C=COCCn1c(C)c(C(C)=O)c2cc(O)ccc21`?
GoLoco inh red: 0.5%; GAA glycogen: -16.6%; KDM4E inh: 5.1%; GAA inh: 8.2%; aGlu spleen mod: 1.1%; aGal spleen mod: 9.7%

The list is partial (hit frequency here may not be typical).
